TRPV1 potentiator: potentiators of human vanilloid receptor 1 (TRPV1); potentiation, % at 8.33 µM; TRPV1-expressing cells, Fluo-8 calcium influx, capsaicin EC20 potentiation; host cell line not named in the record; control for the full effect not named in the record; Q8NER1; actives 0.02% (n = 320,000); active means potentiation above 80%; inconclusive means 30% to 80%; inactive means below 30%; further: 0% is about no effect
Target sequence (Q8NER1 whole entry, looked up): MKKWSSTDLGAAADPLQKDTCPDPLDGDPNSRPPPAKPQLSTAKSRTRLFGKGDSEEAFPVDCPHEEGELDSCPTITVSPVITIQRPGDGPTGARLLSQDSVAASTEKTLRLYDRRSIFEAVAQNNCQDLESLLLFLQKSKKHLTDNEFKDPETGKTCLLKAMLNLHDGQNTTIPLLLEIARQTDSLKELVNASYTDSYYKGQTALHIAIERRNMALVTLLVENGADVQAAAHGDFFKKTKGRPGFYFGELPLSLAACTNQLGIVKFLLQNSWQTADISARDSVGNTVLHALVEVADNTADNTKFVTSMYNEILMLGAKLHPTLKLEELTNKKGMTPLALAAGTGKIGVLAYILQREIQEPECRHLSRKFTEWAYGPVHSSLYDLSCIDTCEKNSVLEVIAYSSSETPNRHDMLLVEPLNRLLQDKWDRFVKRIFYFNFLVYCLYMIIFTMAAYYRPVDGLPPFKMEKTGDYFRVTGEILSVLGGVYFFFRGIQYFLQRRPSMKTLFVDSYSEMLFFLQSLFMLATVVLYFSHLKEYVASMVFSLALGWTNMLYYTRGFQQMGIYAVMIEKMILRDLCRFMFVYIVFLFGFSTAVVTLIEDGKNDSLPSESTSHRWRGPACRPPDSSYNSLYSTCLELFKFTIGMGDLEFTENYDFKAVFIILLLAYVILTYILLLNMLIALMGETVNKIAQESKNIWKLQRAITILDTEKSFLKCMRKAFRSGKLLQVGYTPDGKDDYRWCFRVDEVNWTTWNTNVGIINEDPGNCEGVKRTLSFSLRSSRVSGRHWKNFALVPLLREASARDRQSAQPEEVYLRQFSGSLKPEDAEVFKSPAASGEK
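TRPV1-expressing cells were cultured overnight at 35.5C and loaded with Fluo-8 calcium dye for 40 to 90 min at room temperature. After a 10 s baseline, compound was added and calcium influx was read kinetically for 3 min (ex 480/em 520 nm).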
Menin MLL FP FL: menin-MLL binding inhibition, fluorescein peptide. Fluorescence polarization, fluorescein-MLL peptide displacement from menin. FP activity change, % at 61.4 µM. 290,000 tested, under 10 active. AID 1766; inconclusive = falling polarisation curve, or a change in total fluorescence; inactive = total fluorescence flat and polarisation flat or rising; no compound was filed as active; the % refers to the polarisation; negative = inhibition;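 further: % of control where 0% means no effect; inhibitors lower the polarisation; unlabelled MLL peptide was the positive control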
ClpP mod: qHTS Assay for Activators of ClpP; ATP-dependent Clp protease proteolytic subunit (Bacillus subtilis (strain 168)), P80244; purified B. subtilis ClpP, FRET peptide cleavage, 20 min; Potency, µM (highest dose often 57.5 µM), for the others: at the top dose activity change, negative = active; actives 1.9% (n = 340,000); AID 651965, 2013; active = well fitted falling curve with a large enough effect; inconclusive = small, poorly fitted or top-dose-only effect; inactive = no such curve, though single readings can be large or run the other way; further: potency means the concentration at half of the fitted maximal effect; the source files actives as falling curves though it sought activators and does not explain the sign; nearly all actives have a fitted effect of over 65% in size; many hits overshoot -100%
Target sequence (P80244 whole entry, looked up): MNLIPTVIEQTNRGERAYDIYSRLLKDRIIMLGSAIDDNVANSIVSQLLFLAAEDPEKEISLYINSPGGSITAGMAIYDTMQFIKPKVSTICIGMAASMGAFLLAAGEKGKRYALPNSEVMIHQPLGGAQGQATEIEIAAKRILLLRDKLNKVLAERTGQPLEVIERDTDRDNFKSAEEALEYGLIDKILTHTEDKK
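FRET quenching reversal measured ClpP activation: 10 microg/mL B. subtilis ClpP at pH 8 with the FRET-FV decapeptide, read at 430 nm after 320 nm excitation. The 20-min minus 0-min signal was scaled between DMSO/no-enzyme wells and ADEP (5.8 microM final).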
Sfp PPTase inh: blocks B. subtilis Sfp PPTase activity; Q9F4F7; Biochemical Sfp PPTase activity, qHTS; Potency, µM, inactives show max response, negative = inhibition, hits mostly inhibitors; actives 3.5% (n = 310,000); active means well fitted inhibition curve with a large enough effect; inconclusive means small, poorly fitted or top-dose-only effect, or another doubt; inactive means no such curve, though single readings can be large or run the other way;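 further: the enzyme is Sfp with the accession as filed and its product quenches rhodamine fluorescence; potency means the concentration at half of the fitted maximal effect; 0% = enzyme reaction without inhibitor and -100% = no enzyme wells; top concentration of the series not given in the record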
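Compounds were incubated with enzyme (final 15 nM) for 15 min at room temperature before substrate addition started the reaction. Fluorescence at 525 nm excitation, 598 nm emission was recorded immediately and after 30 minutes.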
gsp ag: agonists of gsp mutant (McCune-Albright syndrome). gsp mutant cells, cAMP HTRF, 30 min; control for the full effect not named in the record. Potency, µM (titrated, usually from 76.9 µM), inactives show at the top dose activation (cAMP increase), actives largely listed as activators. actives 0.13% (n = 340,000); active = well fitted activation curve with a large enough effect; inconclusive = small, poorly fitted or top-dose-only effect, or another doubt; inactive = no such curve, though single readings can be large or run the other way; cell line not stated here;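 further: phosphodiesterase inhibitor Ro 20-1724 added with compounds to block cAMP breakdown; potency means the concentration at half of the fitted maximal effect; nearly all actives have a fitted effect of over 60% in size; about a fifth of the inactives were tested at one dose only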
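Cells in DMEM/10% FBS with G418 were pretreated with compounds in DMSO plus […] (300 uM stock) for 30 min at 37C. cAMP was measured by HTRF (cAMP-d2 plus anti-cAMP antibody-K) after 30 min at room temperature.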
CtBP-E1A blk: CtBP/E1A binding inhibition; AlphaScreen GST-E1A/His-CtBP binding, 1536-well; active compounds read low; control for the full effect not named in the record; activity change, % (test concentration not listed); actives 0.49% (n = 340,000); in the data active means activity change below about -65%; inconclusive means about -30% to -65%; inactive means above about -30%; further: on the % scale 0 is the no-effect control and ±100 the full control effect
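Homogeneous bead-based format: GST-tagged E1A captured on glutathione donor beads, His-tagged CtBP on nickel acceptor beads; compounds precede bead addition by 2 h at 37 °C.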
gsp antag: gsp mutant antagonism | gsp-mutant cells, cAMP HTRF, 30 min; control for the full effect not named in the record | Potency, µM (titrated, usually from 76.9 µM), inactives show top-dose activity change, negative = inhibition, actives largely listed as inhibitors | actives 0.4% (n = 340,000); active = falling curve of any shape with a large fitted effect; inconclusive = falling curve, mostly with a smaller effect; inactive = flat or rising curve; cell line not stated here;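 further: intracellular cAMP measured with PDE inhibitor Ro 20-1724 present during compound exposure; potency means the concentration at half of the fitted maximal effect; on the % scale 0 is the no-effect control and ±100 the full control effect; nearly all actives have a fitted effect of over 65% in size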
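G418-selected cells were plated in DMEM/10% FBS for 16-24 h at 37C, then treated with compounds plus the PDE inhibitor […] (300 uM solution added) for 30 min at 37C. Intracellular cAMP was measured by HTRF after 30 min lysis at room temperature.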
* hit, by the source's call; ? = inconclusive; nt = no result given; & = joins results of further samples; [ ] = another dose, or the depositor's remark. This is a random part of the collection; 5.3% or so of the library scored in one or more.

No.	structure	TRPV1 potentiator	Menin MLL FP FL	ClpP mod	Sfp PPTase inh
1	CCCn1c(SCc2nc(N)nc(N3CCCCC3)n2)nc2c1c(=O)n(C)c(=O)n2C	-1	1.9	-4.1%	10%
2	O=C(Cc1ccc(Cl)cc1)OCC(=O)N1CCCCCC1	nt	nt	0.2%	nt
3	Cc1c(CN(C)C(=O)CSc2nc(-c3ccco3)cc(C(F)(F)F)n2)cnn1C	17	-0.6	-8.7%	3%
4	COc1ccccc1OCCn1cc(C#N)c2ccccc21	-16	-0.2	-6.8%	10%
5	Cc1ccc(-n2cc(CNCC3CC(=O)N(C4CC4)C3)c(-c3cccc(C)c3)n2)cc1 (stereo not given)	15	2.8	-9.5%	-11%
6	O=C(CCCO)N/N=C/c1cc(Br)ccc1O	0	nt	-15%	30%
7	Cc1[nH]ccc(=O)c1OCC(=O)O	-4	1.1	-0.9%	-1%
8	CC(NC(=O)Nc1nnc(C(F)(F)F)s1)(C(F)(F)F)C(F)(F)F	8	-3.9	0.1%	16%
9	O=C(Nc1cccc2c1C(=O)NC2=O)c1ccc(N2C(=O)CCC2=O)cc1	5	6.2	4.4%	11%
10	CN(Cc1ccccc1)C(=O)c1ccc(NC(=O)Cc2ccc(NC(=O)C3CCN(S(=O)(=O)c4cccc([N+](=O)[O-])c4)CC3)cc2)cc1	nt	nt	0.5%	nt
11	Cc1cc(C)cc(N(CC(=O)Nc2ccc(C(F)(F)F)cc2)S(=O)(=O)c2c(C)[nH]c(=O)[nH]c2=O)c1	6	nt	-0.3%&-2.3%	21%
12	O=C(CSc1nnc(-c2ccncc2)n1Cc1ccccc1)NCCc1ccccc1	24	1.9	-0.7%	22%

No.	gsp ag	CtBP-E1A blk	gsp antag
1	15%	-4	1%
2	-2%[15.4 µM]	16	4%
3	-34%[inhibitor]	3	-13%
4	0%	10	-2%
5	-21%	nt	2%
6	-35%[inhibitor]	?	-4%
7	-4%	nt	2%
8	?	6	6.3µM*
9	26%	nt	4%
10	nt	-2	-1%
11	23%	nt	-2%
12	-8%	6	-15%

Later entries:
No.	structure	TRPV1 potentiator	Menin MLL FP FL	ClpP mod	Sfp PPTase inh
13	c1ccc(C2Nc3ccccc3C3OCCCC23)cc1 (stereo not given)	16	1.6	-2.3%	-1%
14	Cc1ccc(S(=O)(=O)C2C(=O)NC3(C)CC2c2ccccc2O3)cc1 (stereo not given)	-15	0.5	-1.0%	6%
15	CCOc1ccc(NC(=S)N2CCCC2)cc1	1	nt	-0.8%	14%
16	Cc1ccc(CN2CCc3c(OCC(=O)Nc4cccc(C)c4C)cccc3C2=O)cc1	-8	12	nt	-13%
17	O=c1c2ccccc2nc(/C=C/c2ccc([N+](=O)[O-])o2)n1CCCO	18	?	1.0%	7%
18	Cc1oc2c(C)c3oc(=O)c(CCC(=O)N[C@@H](CC(C)C)C(=O)O)c(C)c3cc2c1C	-10	19	-14%	-22%
19	CCN(CC)c1cc(-c2ccccc2)ncn1	7	1.9	-1.9%	17%
20	NS(=O)(=O)c1cc(C(=O)NCC2CCCCC2)ccc1Cl	5	0.4	nt	-13%
21	COc1ccc(Br)cc1-c1nc(C)c(C(C)=O)n1O	16	0.9	-2.6%	0%
22	Nc1nc(NCCc2ccccc2)nc(NCCO)c1[N+](=O)[O-]	-2	-3.2	nt	5%
23	Cc1ccc(CNC(=O)CN(C(=O)C2(C)CC(=O)N=C3C=CC=CN32)c2ccc(F)cc2)cc1 (stereo not given)	24	-2.6	-0.4%	29%
24	COc1ccc(CCN2CC(C(=O)OC(C)C(=O)Nc3cccc(Cl)c3)CC2=O)cc1OC (stereo not given)	7	nt	-0.3%	nt

No.	gsp ag	CtBP-E1A blk	gsp antag
13	3%[15.4 µM]	-1	2%
14	-10%	2	8%
15	-2%	-1	16%
16	nt	nt	nt
17	?	-4	23%
18	32%	-21	2%
19	-3%[15.4 µM]	-25	5%
20	-17%	3	-3%
21	-17%	-9	-2%
22	-2%[15.4 µM]	-5	13%
23	-7%[15.4 µM]	0	11%
24	-4%	nt	-5%

Three entries out of the list above, arranged by their value in CtBP-E1A blk, rising:
item	SMILES	CtBP-E1A blk
19	CCN(CC)c1cc(-c2ccccc2)ncn1	-25
18	Cc1oc2c(C)c3oc(=O)c(CCC(=O)N[C@@H](CC(C)C)C(=O)O)c(C)c3cc2c1C	-21
20	NS(=O)(=O)c1cc(C(=O)NCC2CCCCC2)ccc1Cl	3

Single values from the results shown.
`COc1ccc(CCN2CC(C(=O)OC(C)C(=O)Nc3cccc(Cl)c3)CC2=O)cc1OC` (stereo not given) in TRPV1 potentiator has 7
`Cc1ccc(CNC(=O)CN(C(=O)C2(C)CC(=O)N=C3C=CC=CN32)c2ccc(F)cc2)cc1` (stereo not given) in Menin MLL FP FL has -2.6

(continued)
No.	structure	TRPV1 potentiator	Menin MLL FP FL	ClpP mod	Sfp PPTase inh
25	CC(=O)NC(CSc1cc(C)nc2ccc(Br)cc12)C(=O)O (stereo not given)	-5	1.6	-1.3%	8%
26	O=S(=O)(c1cccc2cccnc12)N1CCOCC1	3	-0.9	2.7%	6%
27	COc1ccc([N+](=O)[O-])c(S(=O)(=O)c2ccccc2)n1	4	0.2	0.7%	?
28	O=C(Nc1ccc(N2CCOCC2)cc1)Nc1ccc2nc(-c3ccco3)c(-c3ccco3)nc2c1	-2	-0.2	1.0%	10µM*
29	Cc1ccc(OCC(=O)c2cc(C)n(C)c2C)c([N+](=O)[O-])n1	4	-0.3	3.3%	?
30	CC(C)c1ccc(S(=O)(=O)N2CCN(C(=O)C3CCCCC3)CC2)cc1	5	1.3	1.0%	11%
31	CCn1nccc1C(=O)NC1=C(C#N)CCC1	4	1.8	1.5%	6%
32	COCCOC(=O)C1=C(N)OC2=C(C(=O)CC(C)(C)C2)C1c1ccncc1 (stereo not given)	-8	-5.2	-0.2%	17%
33	Cc1ccc2cc(C3CC(c4cccs4)=NN3S(C)(=O)=O)c(Cl)nc2c1 (stereo not given)	-2	13	-2.1%	3%
34	COc1ccc(NC(=O)CN(C)C(=O)c2cccc(S(=O)(=O)Nc3ccc(F)cc3)c2)cc1	2	nt	-1.8%	nt
35	Cc1nn2c(-c3ccc(S(=O)(=O)N4CCN(CCO)CC4)o3)nnc2c2ccccc12	2	-1.1	4.0%	18%
36	CC(=O)c1ccc(NC(=O)Cn2cnc(S(=O)(=O)N3CCC(C)CC3)c2)cc1	7	nt	1.0%	1%

No.	gsp ag	CtBP-E1A blk	gsp antag
25	2.8µM*	5	25%
26	-31%[inhibitor]	0	14%
27	-3%[15.4 µM]	4	5%
28	5%	?	-12%
29	-40%	-7	1%
30	?	1	-15%
31	-6%	30	-7%
32	23%	-23	-1%
33	13%	nt	0%
34	-30%	15	-6%
35	?	-75*	-13%
36	-15%	0	17%

Next section
No.	structure	TRPV1 potentiator	Menin MLL FP FL	ClpP mod	Sfp PPTase inh
37	N#Cc1ccccc1Sc1ccccc1C(=O)NCC(c1ccco1)N1CCCCC1 (stereo not given)	16	nt	0.4%	nt
38	CCC(C)N(C(=O)COC(=O)C1CCN(S(=O)(=O)c2ccc(C)c(C)c2)CC1)C1CCS(=O)(=O)C1 (stereo not given)	-10	nt	nt	nt
39	Cc1ccc(C)c(NC(=O)c2cc(-c3ccccc3O)n[nH]2)c1	7	-4.2	nt	16%
40	CCN(CC(=O)NCCc1ccccc1)S(=O)(=O)c1ccc(Br)cc1	-3	1.0	0.0%	-11%
41	O=C(NCc1cccnc1)c1ccc(COc2ccccc2Cl)o1	-2	-2.2	-0.6%	7%
42	CC(=O)Nc1ccc(C(=O)Nc2nc(-c3cccnc3)cs2)cc1	10	-4.3	11µM*	?
43	COc1ccc(C(=O)NNC(=O)Nc2ccc(C)cc2)cc1	6	0.5	-1.5%	9%
44	O=C(Nc1ccc2c(c1)OCO2)C1CC1(Cl)Cl (stereo not given)	-2	nt	0.2%	nt
45	S=C(NCCc1ccccc1)Nc1ccc(Br)cc1	-1	0.4	-1.2%	0%
46	COC(=O)c1ccccc1NC(=O)Cn1cnc([N+](=O)[O-])c1	-8	-1.8	-0.4%	18%
47	Cc1csc(NC(=O)CCNC(=O)c2ccc([N+](=O)[O-])cc2)n1	1	2.4	20%	12%
48	COCCOCC(O)CN1CCN(c2ccccc2)CC1 (stereo not given)	11	8.3	0.3%	?

No.	gsp ag	CtBP-E1A blk	gsp antag
37	-3%	nt	1%
38	-7%[15.4 µM]	-3	7%
39	22%[15.4 µM]	7	-3%
40	-40%[inhibitor]	6	-8%
41	0%	4	0%
42	3%[15.4 µM]	-13	-6%
43	-53%	2	2%
44	-46%[inhibitor]	0	-11%
45	17%	2	-9%
46	25%	9	2%
47	8%[15.4 µM]	2	2%
48	11%	8	7%

Profiles, quoted from the list. Order of screens: TRPV1 potentiator | Menin MLL FP FL | ClpP mod | Sfp PPTase inh | gsp ag | CtBP-E1A blk | gsp antag
Profile of COC(=O)c1ccccc1NC(=O)Cn1cnc([N+](=O)[O-])c1 : -8 | -1.8 | -0.4% | 18% | 25% | 9 | 2%
Profile of S=C(NCCc1ccccc1)Nc1ccc(Br)cc1 : -1 | 0.4 | -1.2% | 0% | 17% | 2 | -9%
Profile of COCCOCC(O)CN1CCN(c2ccccc2)CC1 (stereo not given) : 11 | 8.3 | 0.3% | ? | 11% | 8 | 7%
Profile of CC(=O)Nc1ccc(C(=O)Nc2nc(-c3cccnc3)cs2)cc1 : 10 | -4.3 | 11µM* | ? | 3%[15.4 µM] | -13 | -6%

Next section
No.	structure	TRPV1 potentiator	Menin MLL FP FL	ClpP mod	Sfp PPTase inh
49	CCOc1ccc(C(=O)N2CCN(C(=O)c3ccco3)CC2)cc1OCC	2	1.3	0.2%	17%
50	O=C1CCCc2c1[nH]c1ccc(Br)cc21	13	5.3	0.4%	12%
51	CCc1noc(C)c1C(=O)Nc1cc(Cl)ccc1-n1cncn1	-7	nt	-2.6%	nt
52	Cc1ccc(C(=O)NCC(=O)OCCCOC(=O)CNC(=O)c2ccc(C)c(C)c2)cc1C	2	nt	-2.0%	nt

No.	gsp ag	CtBP-E1A blk	gsp antag
49	-29%	9	-11%
50	12%	6	-2%
51	12%	5	11%
52	-27%	-1	-14%

Screening data (PubChem)
